# Assay outcomes deposited in PubChem BioAssay by ICCB-Longwood Screening Facility, Harvard Medical School.
# KSHV LANA nucl = inhibitors of KSHV LANA binding to nucleosomes; FITC-LANA1-23 / chicken nucleosome fluorescence polarization; stronger effect = lower value; z-score (no concentration beside the values); hit rate 0.3% among 51,000; AID 720717;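 active means both repeat wells score below -2 in polarization z-score versus plate sample wells, excluding overly bright wells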;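 further: 100 nL library stock added to about 30 µL; numbers are from one replicate; some results filed as inactive read as strong as hits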
#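 Material: Purified chicken nucleosomes with FITC-labelled LANA N-terminal peptide (1-23) | Reagent: 50 nM FITC-LANA1-23 probe | Medium: TEN-BT buffer, pH 7.5 | Times: 10–45 min incubation at room temperature | Detection: Fluorescence polarization | Replication: Duplicates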
# BasE inh = blocks the Acinetobacter baumannii siderophore enzyme BasE. purified BasE, fluorescence polarization binding displacement. hit rate 0.1% among 84,000. inhibition, % (test concentration not listed). AID 485350;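 active means both replicates above 25% with normal brightness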;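 further: 0% = negative plate control signal and 100% = positive plate control signal; stock transfer was 100 nL into about 30 µL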
# The depositor's hits bear a star; nt = not tested or not shown.
# Each structure is followed by: KSHV LANA nucl	BasE inh
CSc1nc(CN2CCN(S(=O)(=O)Cc3ccccc3)CC2)cc(=O)[nH]1
    nt	0.3
COCC(C)n1c(C)csc1=Nc1ccc(Cl)c(F)c1 (stereo not given)
    nt	1.0
COc1cccc(CNC(=O)N2CC3CCCN3c3ccccc32)c1 (stereo not given)
    -0.07	-1.5
CN(C)S(=O)(=O)c1cccc(CSc2nnc(Cc3cccs3)n2C2CCCCC2)c1
    nt	2.8
O=C(CSc1ncn[nH]1)Nc1nccs1
    0.466	2.1
CC(C)Cc1ccc(C(C)C(=O)N2CCN(c3ccc(C(F)(F)F)cn3)CC2)cc1 (stereo not given)
    nt	1.8
CCOC(=O)C1CCCN(c2c3c(nc4cc(-c5ccc(F)cc5)nn24)CCCC3)C1 (stereo not given)
    -0.0685	-1.3
O=C(COC(=O)/C=C/c1ccc(I)o1)CN1CCN(C(=O)c2ccco2)CC1
    nt	1.3
Cc1ccsc1CNn1nnnc1N
    nt	0.7
CCCCN(Cc1ccco1)C(=O)c1cc2c(=O)n(CC)c3ccccc3c2s1
    0.992	-3.5
COc1ccc(S(=O)(=O)n2ccnc2)cc1C
    -0.359	0.9
O=C(O)CSC1=NCCS1
    0.716	-0.5
NCc1ccoc1C(=O)O
    0.261	1.5
Cc1occc1-c1nnc(SC(C)C(=O)NC(C)c2ccc(Cl)cc2Cl)n1C (stereo not given)
    nt	-0.8
CN=c1scc(-c2ccc(OC)cc2)n1/N=C(\C)c1cccnc1
    nt	-0.1
C=CCn1c(=N)c(C#N)cc2c(=O)n3cccc(C)c3nc21
    0.81	-5.7
O=C(NCCc1ccccc1)C1CCN(c2cnccn2)CC1
    0.372	-0.1
COc1ccc(OCC(=O)N2CCN(S(C)(=O)=O)CC2)cc1
    1.2	-1.2
O=C(NCCN1CCOCC1)c1cc2ccc3cccnc3c2[nH]1
    nt	-8.7
N#Cc1ccccc1OCC(=O)Nc1ccc2c(c1)OCCO2
    nt	1.7
O=C(O)C12CC3CC(CC(S)(C3)C1)C2
    0.897	-0.5
Cc1cccc(S(=O)(=O)NCc2cccc(C(F)(F)F)c2)c1
    nt	2.3
O=C(CCN1C(=O)c2cccnc2Sc2ccccc21)N1CCc2ccccc21
    0.331	1.0
CC1(C)C2CCC1(CS(=O)(=O)n1cnc3ccccc31)C(=O)C2 (stereo not given)
    -0.014	1.8
COc1ccc(-n2cc(C(=O)NCCOc3cccc(-n4cnnn4)c3)nn2)cc1
    1.41	1.2
Cc1ccc(Cn2nc(C)c(/C=N/N3CCOCC3)c2C)cc1
    nt	0.4
O=S(=O)(NC1CCCCC1NS(=O)(=O)c1ccc(F)cc1)c1ccc(F)cc1 (stereo not given)
    -0.691	1.0
CC12COC3(C(=O)Nc4ccccc4)CC1CCC32C (stereo not given)
    2.17	-4.3
COc1ccc(COCC(O)CS(=O)(=O)Cc2ccc(C)cc2)cc1 (stereo not given)
    nt	2.4
N#Cc1c(N)n(-c2ccc(O)cc2)c2nc3ccccc3nc12
    nt	-0.3

# Three structures already listed, sorted by SMILES length, low to high:
# Each structure is followed by: KSHV LANA nucl	BasE inh
COc1cccc(CNC(=O)N2CC3CCCN3c3ccccc32)c1 (stereo not given)
    -0.07	-1.5
CC1(C)C2CCC1(CS(=O)(=O)n1cnc3ccccc31)C(=O)C2 (stereo not given)
    -0.014	1.8
O=C(CCN1C(=O)c2cccnc2Sc2ccccc21)N1CCc2ccccc21
    0.331	1.0

# Next entries follow.
# Each structure is followed by: KSHV LANA nucl	BasE inh
CCOC(=O)Nc1cccn(Cc2ccccc2F)c1=O
    -1.47	-0.7
O=C(CCc1c[nH]c2ccccc12)N/N=C/c1ccccc1O
    0.163	5.9
Cc1ccc2c(c1)N(C(=O)CCC(=O)NC1CCCC1)CCO2
    -0.162	3.0
O=C1c2ccccc2S(=O)(=O)N1CC(O)Cn1c2ccccc2c2ccccc21 (stereo not given)
    nt	1.6
COc1ccc(OCCC(=O)OCc2c(C)noc2C)cc1
    nt	0.9
Clc1ccc2oc(-c3ccccc3)nc2c1
    -0.0105	0.9
COc1ccc(CC(=O)N2c3ccccc3Sc3ccccc32)cc1OC
    nt	2.4
COc1cc(/C=C(\C#N)c2ccc(C)cc2)cc(OC)c1OC
    nt	3.1
O=C(CNc1cc(=O)[nH]c(=S)[nH]1)NCc1ccco1
    nt	-0.6
N#CC1(c2ccc(Cl)cc2)CCCCC1
    -0.593	2.6
CCC(C(=O)O)n1cnc2ccccc21 (stereo not given)
    -0.555	1.8
S=c1[nH]nc(CSCCOc2ccccc2)o1
    -0.97	2.4
COc1ccc(C(=O)NCc2ccccc2)cc1OC
    -1.14	-0.8
N/C(=C\C(=O)c1cccs1)C(F)(F)F
    0.917	0.2
Nc1c(C(=O)N2CCOCC2)nnn1-c1ccccc1
    -0.304	-0.1
Cc1ccccc1NC(=O)NC(C)(C)CC(C)(C)C
    -0.0685	0.8
NC(=O)C1CCN(C(=O)CC(c2ccccc2)c2ccccc2)CC1
    0.653	1.2
CC1C2CC(=O)N(C)C1(C)Oc1ccccc12 (stereo not given)
    -1.12	-0.7
COC(=O)c1c(NC(=O)CSc2nncs2)sc2c1CCCCC2
    nt	-3.6
O=C(NCCn1cccc1)c1cccc2ccccc12
    1.26	2.0
Cc1cc(=O)[nH]c(N/N=C/CCc2ccccc2)n1
    -0.415	1.0
CN1CCN(C(=O)c2n[nH]c(=O)c3ccccc23)CC1
    nt	1.8
COc1ccc2c(=O)c(NC(=O)Nc3ccc(F)cc3F)c[nH]c2c1
    -0.505	2.4
CNCC(=O)NC(C)(C)C
    nt	0.6
Cc1ccccc1-n1cnnc1SCC(=O)c1cc(C)n(C2CCS(=O)(=O)C2)c1C (stereo not given)
    nt	-86.3
Cc1ccc(/C=C2/SC(=S)N(c3ccc(C(=O)O)c(O)c3)C2=O)o1
    -0.226	1.1
COc1ccc(N2CCN(C(=S)Nc3ccccc3)CC2)cc1
    nt	-0.2
Cc1cc2c(=O)[nH][nH]c(=S)n2n1
    -0.335	0.8
Cc1cc(C)c2c(-n3cccc3)c(C(=O)NCCc3ccc(S(N)(=O)=O)cc3)sc2n1
    -0.148	-0.4
COc1ccc(NC(=O)N2CC(C)Sc3ccccc32)cc1 (stereo not given)
    -0.836	0.1

# Next part.
# Each structure is followed by: KSHV LANA nucl	BasE inh
COc1ccccc1C(O)(c1ccc(O)cc1)C(CN1CCOCC1)c1ccccc1 (stereo not given)
    -0.327	-0.5
COc1cc(N)ncn1
    -1.12	1.0
CCc1cc2cc(C)cc(C)c2nc1Cl
    0.529	0.1
c1ccc(Cn2c3c(c4ccccc42)CCOc2ccccc2-3)cc1
    nt	2.0
CN(C)S(=O)(=O)c1cccc(C(=O)N=C=S)c1
    nt	0.3
CCOC(=O)c1ccc(NC(=O)NC(C)c2ccc3c(c2)OCO3)cc1 (stereo not given)
    -0.252	-0.1
O=C(C1CCCCC1)N1CCCCCCC1
    -0.18	-2.1
O=C(c1ccccc1)c1cnc(Nc2nc3ccccc3o2)nc1-c1ccccc1
    2.2	-4.9
CC(=O)N(C)c1ccc(N=Cc2ccc(C)o2)cc1
    0.391	-2.3
O=c1[nH]c2ccc(N=Cc3ccc(F)cc3)cc2[nH]1
    0.0235	3.9
CNC(=S)N/N=C/c1cc(C)ccc1C
    nt	1.8
Nc1cc(N)nc(SCc2cccnc2)n1
    -0.299	2.0
O=S1(=O)CCN(C2CCN(Cc3ccccc3)CC2)CC1
    -0.0345	nt
CC1CCCC(C)N1S(=O)(=O)c1ccccc1 (stereo not given)
    0.681	-0.2
C=CCNCc1ccc(-c2ccc(C(C)O)cc2)o1 (stereo not given)
    -0.708	-3.6
CCC(C)N1CCN(C2CCCCC2)CC1 (stereo not given)
    0.317	3.4
CC(=O)Nc1ccc(S(=O)(=O)N(C)S(=O)(=O)c2ccc(F)cc2)cc1
    nt	-2.5
CC1(C)NC(=O)N(Cc2ccccc2)C1=O
    0.406	2.9
O=C(Oc1ccccc1N1CCOCC1)c1ccco1
    nt	1.1
Cn1ncc2c(=O)n(CC(=O)NC34CC5CC(CC(C5)C3)C4)cnc21
    nt	0.4
Oc1ccc(C(=S)N2CCCCC2)cc1
    nt	2.6
CC(SC1CCCCC1)C(=O)Nc1ccc(S(N)(=O)=O)cc1 (stereo not given)
    nt	1.2
CCOC(=O)CNc1ccccc1C#N
    -0.356	nt
COC(=O)c1sccc1NC(=O)c1ccc2nonc2c1
    0.141	0.3
CC(C)C(CC(=O)O)c1ccco1 (stereo not given)
    0.316	-1.2
Cc1c(/C=C(/C#N)C(=O)Nc2ccc(Cl)cc2)c2ccccc2n1C
    -0.681	3.9
COc1cccc(CC(=O)Nc2nnc(SCc3ccc(C#N)cc3)s2)c1
    nt	-1.2
O=C(CSc1ccc(S(=O)(=O)N2CCCC2)cn1)Nc1ccc2c(c1)OCCCO2
    nt	-0.9
CC1CC(C)CN(C(=O)COC(=O)c2ccccc2NC(=O)c2ccco2)C1 (stereo not given)
    nt	-0.4
CC1(C)C2=CC3(C)N(CC(=O)N2c2ccccc21)c1ccccc1C3(C)C (stereo not given)
    2.93	-0.5

# Continuation.
# Each structure is followed by: KSHV LANA nucl	BasE inh
COc1ccc(Cl)cc1NC(=O)CN1CCCC(c2nnc(SC)n2C(C)C)C1 (stereo not given)
    -1.09	-1.7
COc1ccc(-n2nc(C(=O)NCC(=O)Nc3ccccn3)c3ccccc3c2=O)cc1
    -1.27	1.6
O=C(Nc1ccccc1)C(Cc1cccs1)c1nn[nH]n1 (stereo not given)
    -0.467	3.0
COc1ccc(NC(=O)COC(=O)C2CCCCN2S(=O)(=O)c2cccc3nsnc23)cc1 (stereo not given)
    nt	-1.0
CCCn1cnc2cc(NCc3ccc(OCC)cc3)ccc21
    -2	1.7
O=C(N=c1scc(-c2ccccc2)n1-c1ccccc1)c1ccco1
    0.23	0.0
CCCCN1C(=O)CCC(C(=O)O)C1c1cccs1 (stereo not given)
    0.0665	nt
Cc1nc(Nc2ccc(S(=O)(=O)N3CCCC3)cc2)c2nnn(Cc3ccccc3)c2n1
    -0.202	4.1
CCN(C(=O)Cn1nnc(-c2ccccc2)n1)c1ccccc1
    -0.345	-0.8
CC(=O)Nc1ccc2nc(NC(=O)c3ccc(-c4ccccc4)cc3)oc2c1
    nt	2.4
Cc1c(C(=O)NCCN2CCOCC2)oc2ccc3c(c12)C(O)CC1(CCCCCC1)O3 (stereo not given)
    0.753	-4.5
O=C(/C=C/N1C(=O)c2ccccc2C1=O)c1ccccc1
    nt	3.4
COC(=O)c1sc2nc[nH]c(=O)c2c1CC(=O)O
    nt	3.7
COc1ccc(/C=N/OCC(=O)N2CCOCC2)cc1
    -0.151	0.2
COc1ccc(Oc2c(C)oc3cc(OC(=O)N4CCOCC4)ccc3c2=O)cc1
    0.121	-1.8
COc1ccc(Sc2nn3nnnc3c3ccccc23)cc1
    0.469	0.2
CC1CC(=O)C2=C(C1)Nc1ccccc1N=C2 (stereo not given)
    -0.867	1.4
CCOC(=O)/C=C1\SCC(=O)N1Cc1cc(Cl)cc2c1OCOC2
    nt	-0.8
CN(Cc1ccccc1)C(=O)Cn1c(=O)oc2ccccc21
    nt	-2.2
CCOC(=O)/N=C(/c1ccc(Cl)cc1)c1cc2ccccc2cn1
    nt	-1.7
O=C(Oc1ccc2c(c1)OCO2)C12CC3CC(CC(C3)C1)C2
    nt	-0.3
O=C(NC1CCCCC1)NC1CCN(S(=O)(=O)c2cccc(Cl)c2)CC1
    0.489	2.2
O=C(c1ccccc1)N1CCN(c2ccc(N3CCOCC3)nn2)CC1
    0.197	-0.4
CCNc1nc(-c2cccnc2)nc2ccccc12
    nt	-4.0
CN(C)S(=O)(=O)c1cccc(COC(=O)c2cccnc2SCC(=O)Nc2ccc3c(c2)OCO3)c1
    nt	-0.6
Cc1ccc2[nH]c3c(c2c1)CCCC3C#N (stereo not given)
    -0.121	2.3
CCOCC(=O)Nc1nnc(C2CCCCC2)s1
    0.237	-1.9
Cc1ccc(SC(C)C(=O)Nc2ccc3c(c2)OCO3)cc1 (stereo not given)
    -0.0005	-0.9
CCOC(=O)c1c(C)oc2c1c(C=NC1CCCC1)c(O)c1ccccc12
    nt	0.5
O=S(=O)(NCc1ccccc1)N1CCCCC1
    2.55	-3.7

# 3 records drawn at random from those above, as already listed:
# Each structure is followed by: KSHV LANA nucl	BasE inh
Cc1cc(=O)[nH]c(N/N=C/CCc2ccccc2)n1
    -0.415	1.0
Cc1ccc(/C=C2/SC(=S)N(c3ccc(C(=O)O)c(O)c3)C2=O)o1
    -0.226	1.1
NCc1ccoc1C(=O)O
    0.261	1.5

# Going on with the list.
# Each structure is followed by: KSHV LANA nucl	BasE inh
CN(C)/C=N/c1nnc(Sc2ccnc3cc(Cl)ccc23)s1
    nt	-4.2
CCN(C(=O)c1cc2cc(OC)ccc2oc1=O)c1cccc(C)c1
    -1.41	0.6
CC(=O)N1C(=O)NC2NC(=O)N(C(C)=O)C21 (stereo not given)
    -0.226	3.9
O=C(O)c1ccc(Cn2cccn2)cc1
    0	1.2
Cc1ccc(C)c(OCc2nnc(SC/C(O)=C(\C#N)c3nc4ccccc4[nH]3)o2)c1
    nt	1.7
Cc1noc(C)c1COC(=O)[C@H](C)N=C1NS(=O)(=O)c2ccccc21
    nt	-0.1
O=C(CCSc1ccc(Cl)cc1)Nc1ccccc1
    nt	0.1

# A portion of the library; the hit share may differ from the screen's.
